# VCAM-1 rise – boosters of cytokine-driven VCAM-1 levels – cell-based, plate reader, pooled HUVEC, TNFa stimulus (AID 455); HUVEC TNFa-induced VCAM-1 immunofluorescence, plate reader; numbers were filed only for top-ranked candidate wells; augmentation, % at 5 µM; 10,000 compounds, 0.2% hits;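 active = a compound raising TNF-alpha-driven VCAM-1 surface staining, with its hit status upheld on visual or statistical review; inactive = the rest, including hits rejected on review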;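 also: 0% = TNFa with vehicle and 100% = strongest image-checked hit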
# 26S disassembly – blocks ATP-dependent breakdown of the yeast 26S proteasome. inhibition of disassembly, % (concentration not given with the values). 24,000 compounds, 0.2% hits. anti-FLAG beads, GFP-proteasome disassembly, flow cytometry. AID 751;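 active = above 40%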;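 also: plate controls were ATP control with full disassembly for no effect and ATP-gamma-S intact proteasomes for full effect; higher percent means more bead fluorescence retained so stronger block of disassembly; stock transfer was 100 nL into about 10 µL; wells with too few beads may also be inconclusive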
# Active calls of the source: *; i = inactive; x = no result given. These rows are one share of the data; count on the stated rates, not on these rows.
SMILES,VCAM-1 rise,26S disassembly
O=C(Nc1cc(C(=O)N2CCCC2)ccc1N1CCCC1)c1ccccc1F,i,-2.7
O=c1c[n+]([O-])c2ccccc2n1OCc1ccccn1,i,0.6
CCOC(=O)N1CCN(C(=O)CSc2nnc(COc3ccc(Cl)cc3)o2)CC1,x,0.8
CC1(C)Cc2nc3oc4c(N(CCO)Cc5ccccc5)ncnc4c3cc2CO1,i,-0.7
O=C(N1CCCCCC1)N1CCN(S(=O)(=O)N2CCCCC2)CC1,i,-1.6
CCOC(=O)N1CCC(NC(=O)c2cc3c(-c4ccc(Cl)cc4)nn(C)c3s2)CC1,x,-0.6
CCS(=O)(=O)N1CCCC(C(=O)NCCCN(C)Cc2ccccc2)C1 (stereo unspecified),x,0.4
Cc1cccc(N2CCN(C(=O)c3ccc(NS(=O)(=O)c4c(C)noc4C)cc3)CC2)c1C,i,-2.0
O=C(CN1CCCN(S(=O)(=O)c2ccc(Br)cc2)CC1)Nc1ccc2cn[nH]c2c1,i,-0.7
COc1cc(C2C(C(=O)OC(C)C)=C(C)Nc3ncnn32)cc(OC)c1OC (stereo unspecified),x,-0.7
CN(c1ccccc1)c1nc(-n2ccnc2)nc(-n2ccnc2)n1,x,1.9
COc1ccc(-n2c(Cn3c(=O)sc4ccccc43)nnc2SC)cc1,x,8.4
CCC(C)(C(=O)NC1CCCC1)N(CC1CCCO1)C(=O)c1ccc2c(c1)OCO2 (stereo unspecified),x,-0.2
Cn1cc(/C=N/n2cnc3scc(-c4ccccc4)c3c2=O)c2ccccc21,x,1.7
c1csc(CCNc2ncnc3sc4c(c23)CCC4)c1,x,-1.1
C=CCOc1ccc(C2/C(=C(\O)c3c(C)[nH]c(C(=O)OC)c3C)C(=O)C(=O)N2CCN(C)C)cc1 (stereo unspecified),i,-2.4
CCCCCCn1c(CN2CCC(C)CC2)nc2c1c(=O)n(C)c(=O)n2C,x,0.3
O=C(C1CC1)N1CCc2cc(Br)cc(S(=O)(=O)N3CCN(c4ccccn4)CC3)c21,x,2.5
CN1CCCCCC1=NC1=C(C#N)CCCC1,x,-2.3
O=C(c1nnc(Cc2ccc(Cl)cc2)o1)N1CCOCC1,x,-3.9
COC(=O)c1ccc(NC(=O)CSc2nnc(Cc3cccn3C)n2-c2ccc(F)cc2)cc1,x,-0.2
CC(=O)NS(=O)(=O)c1ccc(N)cc1,i,0.0
Cc1occc1C(=O)Nc1cccc2ccccc12,i,-0.5
Cc1cc2ncn(N)c2cc1C,i,0.3
CCn1cc(C(=O)N2CCN(c3ccccn3)CC2)c2cc(OC)c(OC)cc2c1=O,x,1.5
CCC(C)Sc1nnc(Cc2cc(=O)[nH]c(=O)[nH]2)n1-c1ccc(OC)cc1 (stereo unspecified),x,-0.8
Cc1ccccc1Cn1ccc(NC(=O)c2onc(C)c2Cl)n1,i,0.6
NC(=O)C1(N2CCCCC2)CCN(C(=O)NC2CCCCC2)CC1,x,-0.4
Cc1ccc(C(=O)C2COC(=O)C2)cc1 (stereo unspecified),i,0.6
CCOC(=O)NC(NCC(O)c1ccccc1)(C(F)(F)F)C(F)(F)F (stereo unspecified),x,3.3

# 4 entries picked at random from the list so far, as already listed:
SMILES,VCAM-1 rise,26S disassembly
COC(=O)c1ccc(NC(=O)CSc2nnc(Cc3cccn3C)n2-c2ccc(F)cc2)cc1,x,-0.2
NC(=O)C1(N2CCCCC2)CCN(C(=O)NC2CCCCC2)CC1,x,-0.4
CCC(C)Sc1nnc(Cc2cc(=O)[nH]c(=O)[nH]2)n1-c1ccc(OC)cc1 (stereo unspecified),x,-0.8
Cc1occc1C(=O)Nc1cccc2ccccc12,i,-0.5

# (next part)
SMILES,VCAM-1 rise,26S disassembly
Nc1cc(-c2ccccc2)ccc1O,i,2.0
COc1ccc(OC)c(CN2C(=O)c3ccccc3C2C(=O)NCc2cccnc2)c1 (stereo unspecified),x,0.1
Cn1c(=O)[nH]c(=O)c2c1nc(NCCCn1ccnc1)n2Cc1cccc(Br)c1,i,0.0
NC(=O)CSc1nnc(Cn2c(=O)sc3ccccc32)n1CCc1ccccc1,x,2.7
Cc1nc2sc(C(c3ccccc3)N3CCC(O)CC3)c(O)n2n1 (stereo unspecified),x,-0.5
O=C(CC1N=C2c3ccccc3N=C(SCc3ccccc3Cl)N2C1=O)NCc1ccco1 (stereo unspecified),x,5.2
O=c1cc(-c2ccc(Cl)cc2)[nH][nH]1,i,-0.7
O=C(O)Cn1cc(C(=O)c2ccco2)c2ccccc21,i,-1.1
COc1ccc(CCNC(=O)c2cnn3ccccc23)c(OC)c1OC,i,-0.6
O=C(CS(=O)(=O)c1cn(Cc2cccc(F)c2)c2ccccc12)N1CCOCC1,x,-0.6
O=C(CSc1ncnc2nc[nH]c12)c1ccc(Cl)cc1,i,-0.5
Cc1cccc(-n2nnc(C(=O)NCc3ccco3)c2N)c1,x,0.2
COc1cc(-c2nc(-c3ccncc3)no2)cc(OC)c1OC,i,0.5
CN(Cc1ccccc1)C(=O)CCCn1c(=O)[nH]c2cc(Cl)ccc2c1=O,x,0.1
O=C(Nc1ccccc1C(F)(F)F)c1cc(-c2ccc(O)cc2)on1,x,-1.4
COc1ccc(-n2c(C)nc3c(cnn3-c3ccc(Cl)cc3)c2=O)cc1,x,0.4
CC(C)CCNC(=O)Cn1c(NCCC(C)C)nc2c1c(=O)n(C)c(=O)n2C,i,-0.4
C/C(CC(O)(/C=N/O)c1ccccc1)=N\O (stereo unspecified),i,-1.6
CCCCC(=O)NCCc1ccc(S(N)(=O)=O)cc1,i,1.3
Nc1nc(-c2ccc(Cl)cc2)cc(C(F)(F)F)n1,i,0.7
O=C(Nc1nnc(C2CC2)o1)c1ccc(S(=O)(=O)N2CCCc3ccccc32)cc1,x,0.3
CCOc1ccccc1CNC(=O)c1cc2occc2n1C,x,-1.7
COc1cc(C(=O)Nc2cccc(-c3nc4cc(C)ccc4o3)c2)cc(OC)c1OC,i,-2.7
CCN(Cc1ccccc1)S(=O)(=O)c1ccc2oc(C(=O)O)c(C)c2c1,x,0.0
CCCC(=O)NCc1ccc2c(c1)cc(C)n2C,x,1.3
COc1ccc(C)cc1-n1nnnc1SCC(=O)Nc1cc(C)on1,i,-0.5
Cc1nc2ccccc2c(=O)n1NCc1cc(Br)cs1,x,6.6
CCOc1ccc(OCC)c(NS(=O)(=O)c2cccc3nsnc23)c1,x,0.0
COC(=O)c1c(NC(=O)c2ccc(Br)o2)sc(C)c1C,x,-0.8
COc1ccc2c(c1)OC1(C)CC2C(C(=O)c2ccccc2OC)C(=O)N1 (stereo unspecified),x,-0.1

# Compound profiles, from the list above. Values in the order: VCAM-1 rise	26S disassembly
# Shown for `COC(=O)c1c(NC(=O)c2ccc(Br)o2)sc(C)c1C` → x	-0.8
# Shown for `Cn1cc(/C=N/n2cnc3scc(-c4ccccc4)c3c2=O)c2ccccc21` → x	1.7
# Shown for `O=c1c[n+]([O-])c2ccccc2n1OCc1ccccn1` → i	0.6
# Shown for `O=C(CN1CCCN(S(=O)(=O)c2ccc(Br)cc2)CC1)Nc1ccc2cn[nH]c2c1` → i	-0.7
# Shown for `Cc1cc2ncn(N)c2cc1C` → i	0.3

# The results go on.
SMILES,VCAM-1 rise,26S disassembly
Cn1c(C(=O)N2CCN(c3ccc(F)cc3)CC2)cc2c(=O)n(C)c3ccccc3c21,x,-0.5
CC(C)NC(=O)CSc1nnc(-c2ccc(C(C)(C)C)cc2)n1C,i,-0.3
O=C(O)c1[nH]c2ccc(Cl)cc2c1CC(=O)N1CCN(c2ccccc2)CC1,x,1.3
C=CCOc1nc(N2CCCC2)nc(N2CCCC2)n1,i,-0.6
CC(=O)c1c(C)[nH]c(C(=O)N2CCc3ccccc3C2)c1C,x,-2.1
CCN(CC)S(=O)(=O)c1ccc2c(c1)c(=O)c(C(=O)N1CCc3ccccc3C1)cn2C,x,-2.2
CC(C)Cc1cc(C(=O)Nc2cc(Br)ccc2O)no1,x,-2.1
CCOC(=O)c1c(C)[nH]c(C(=O)CSc2nc3ccccc3o2)c1C,i,0.6
COc1ccc(C(=O)c2coc3ccc(O)c(CN4CCCC4)c23)cc1,x,-0.4
CC1(C)Cc2c(sc3c2C2=NCCN2C=N3)CS1,i,-0.7
CCN(CC)CCNC(=O)c1ccccn1,x,1.3
O=S(=O)(NC1CCCC1)c1ccccc1Cl,i,0.3
CCOc1ccc(-c2nc(C#N)c(N3CCOCC3)o2)cc1,x,-1.2
Cn1c(SCc2nnc3n2CCCCC3)nc2ccccc21,i,0.8
CC(C)CC(NC(=O)OC(C)(C)C)C(=O)NC(C(=O)NC(C)C(N)=O)C(C)C (stereo unspecified),i,-1.5
Nc1c(C(=O)NCc2ccccc2)nnn1Cc1cccc(Cl)c1,x,1.3
CN(CC(=O)NCc1cccs1)S(=O)(=O)c1cccc2nsnc12,x,-0.5
COc1ccc(CNC(=O)Cn2nc(C(F)(F)F)c3c2CCC3)cc1,i,-0.7
CC1CCCC(NC(=O)c2ccc3c(=O)n(CC4CCCO4)c(=O)[nH]c3c2)C1C (stereo unspecified),x,6.3
CCOC(=O)c1nnn(-c2nonc2N)c1CN1CCc2ccccc2C1,i,2.4
CC(=O)c1ccc(NC(=O)CCNS(=O)(=O)c2cccc3nonc23)cc1,x,-0.1
Cc1ccc(CCNC(=O)C2CCN(S(=O)(=O)N3CCCC3)CC2)cc1,x,2.5
CCn1cc(C2=NC(c3ccccc3)CO2)c2ccccc21 (stereo unspecified),x,0.6
O=C(c1cc2ccccn2n1)N1CCN(c2cccc(C(F)(F)F)c2)CC1,x,-0.5
CCOc1ccc(NC(=O)CN2CCN(CC(=O)Nc3ccc(C(=O)OC)cc3)CC2)cc1,x,0.3
Cc1cc(Nc2cccc(C)c2C)n2ncnc2n1,x,1.4
CCOC(=O)CSC1=C(C#N)C(c2ccc3c(c2)OCO3)CC(=O)N1 (stereo unspecified),i,0.5
CC1=C(C(N)=O)C(c2cccc(O)c2)n2nc(CCCO)nc2N1 (stereo unspecified),x,-0.9
COc1ccccc1C1N(c2ccc(F)cc2)C(=O)C2CCCN21 (stereo unspecified),i,29
CCCN1Cc2cccc(C(=O)NCc3cccs3)c2C1=O,i,-5.0
CCc1nc2sc(C)c(C)c2c(=O)n1CCO,i,1.6
CCCN1CCN(CCCNC(=O)C2CCN(c3nnc(-n4cccc4)s3)CC2)CC1,x,0.7
CCCc1cc(C(=O)N(C2CCCCC2)C2CCCCC2)no1,x,0.1
CCOC(=O)c1[nH]c2ccc(C)cc2c1N=C(C)N(C)C,i,1.7
FC(F)(F)C(Oc1nc(NC2CCCCC2)nc(N2CCOCC2)n1)C(F)(F)F,x,-0.5
O=C1C2C3C=CC(C3)C2C(=O)N1Cc1ccccc1 (stereo unspecified),i,0.4
Cc1cc(NC(=O)c2cc(CC(C)C)on2)n(-c2ccccc2)n1,x,0.4
Cc1n[nH]c(C)c1S(=O)(=O)N(CC(=O)Nc1ccc2c(c1)OCCO2)c1ccc(C(C)C)cc1,x,-3.6
Cc1nc2sc(C(c3ccco3)N3CCN(c4ccccc4F)CC3)c(O)n2n1 (stereo unspecified),i,0.3
Cn1c(C(F)(F)F)nc2c(=O)oc3ccccc3c21,x,-1.3
CCN1C(=O)c2ccccc2S(=O)c2ccc(C(=O)NCc3ccccn3)cc21 (stereo unspecified),x,-0.5
CCc1ccc(NC(=O)c2cc(CC(C)C)on2)cc1,x,1.1
O=C1c2ccccc2C(O)N1Cc1ccc2c(c1)OCO2 (stereo unspecified),x,-1.1
COc1ccc(-c2noc(CCC(=O)NCCN3CCN(c4ccccc4F)CC3)n2)cc1,x,0.0
CC(C)(C)C1CCC2(CC1)NC(CO)(CO)CO2 (stereo unspecified),x,1.5
c1cnc(NCCNc2ncccn2)nc1,i,1.0
CCc1ccccc1N(CC)C(=O)CCc1nc(-c2ccc(C)cc2)no1,x,0.3
Cc1noc(C)c1CSc1nc2ccccc2s1,i,5.0
Cc1nnc2ccc(N3CCN(C(=O)c4ccccc4)CC3)nn12,x,1.7
Cc1ccc2nc(NC(=O)C3CCCN(S(=O)(=O)c4cnc[nH]4)C3)sc2c1 (stereo unspecified),i,0.8
# Continued.
SMILES,VCAM-1 rise,26S disassembly
c1ccc(-c2csc(N3CCCCCC3)n2)cc1,i,0.7
COc1cccc(-c2nnc(SCC(=O)N3CCCc4ccccc43)o2)c1,i,1.8
O=C(NCCC1=CCCCC1)C1CCN(Cc2cnn(-c3ccccc3)c2-n2cccc2)CC1,x,2.9
CN(C)c1ccc(NC(=O)CSc2nc3ccccc3c(=O)n2C2CCCCC2)cc1,x,-1.7
CCOCC(O)CS(=O)Cc1ccccc1 (stereo unspecified),i,0.9
Cc1c(NC(=O)c2ccc(N3C(=O)C4C5C=CC(C5)C4C3=O)cc2)c(=O)n(-c2ccccc2)n1C (stereo unspecified),x,-0.3
O=c1[nH]c(NCc2ccco2)nnc1Cc1ccccc1Cl,i,-0.3
Nc1c(C(=O)Nc2ccc3c(c2)OCCO3)nnn1CCc1ccccc1,x,2.4
O=C(CSc1nnc(Cn2c(=O)sc3ccccc32)n1-c1ccccc1)N1CCCC1,x,-0.9
CCCN(CCC)C(=O)CSc1nc2ccccc2c(=O)n1C1CCCC1,i,-1.7

# Copied from the list.
# For 26S disassembly, COc1cccc(-c2nnc(SCC(=O)N3CCCc4ccccc43)o2)c1 has the entry 1.8
# For 26S disassembly, O=c1[nH]c(NCc2ccco2)nnc1Cc1ccccc1Cl has the entry -0.3

# Next part
SMILES,VCAM-1 rise,26S disassembly
CCOc1ccc(CCNC(=O)c2nnc(Cc3ccc(F)cc3)o2)cc1OCC,x,-2.9
CCOC(=O)c1[nH]c2ccccc2c1NC(=O)CCN1CCN(C(=O)OCC)CC1,i,-0.1
CCOc1cc(C2C(C(=O)OCC(C)C)=C(C)N=C3SCCC(=O)N32)ccc1OC(C)=O (stereo unspecified),x,-1.4
Cc1ccc(C)c(N2CCN(C(=O)CN(C)S(=O)(=O)c3cnc[nH]3)CC2)c1,x,0.0
COC(=O)Nc1nnc(CCc2ccccc2)s1,i,-0.8

# High-throughput results: PubChem, several laboratories
